2A Renilla: FMDV 2A StopGo reporter, Renilla signal; HEK cells with a luciferase reporter of 2A StopGo recoding; Potency, µM (doses to about 57.5 µM), for the others: top-dose signal change, negative = less light; actives 0.32% (n = 120,000); active means well fitted falling curve with a large enough effect; inconclusive means small, poorly fitted or top-dose-only effect; inactive means no such curve, though single readings can be large or run the other way; note: nearly all actives have a fitted effect of over 55% in size; overnight with compound
StopGo FLuc: FMDV 2A StopGo reporter, firefly signal. HEK cells with a luciferase reporter of 2A StopGo recoding. Potency, µM (doses to about 57.5 µM), for inactives: at the highest dose signal change, negative = less light. actives 0.23% (n = 120,000); active = well fitted falling curve with a large enough effect; inconclusive = small, poorly fitted or top-dose-only effect; inactive = no such curve, though single readings can be large or run the other way; note: nearly all actives have a fitted effect of over 60% in size; overnight with compound
Numbers without * were called inactive; ? = inconclusive; [ ] = another dose, or the depositor's remark. % is set by controls: 0 for no effect and ±100 for the full control effect; potency is the fitted concentration of half-maximal effect. This is a random part of the collection. About 0.53% of those tested had a hit in this group.

The first 3 compounds (preview)
| Molecule | 2A Renilla | StopGo FLuc |
| --- | --- | --- |
| CCOC(=O)C1=C(CS(=O)(=O)c2cc(Cl)ccc2OC)NC(=O)NC1c1cccc(OC)c1 (stereo not given) | -0.8% | -13.7% |
| CCOC(=O)c1cnc(Nc2ccc(F)cc2F)c2ccccc12 | 30.9%[activator] | 29.8% |
| COc1ccc(-c2nc(COC(=O)C3(O)CCCCC3)cs2)cc1 | 11.8% | 137.2%[activator] |

Main list, repeating the preview:
| Molecule | 2A Renilla | StopGo FLuc |
| --- | --- | --- |
| CCOC(=O)C1=C(CS(=O)(=O)c2cc(Cl)ccc2OC)NC(=O)NC1c1cccc(OC)c1 (stereo not given) | -0.8% | -13.7% |
| CCOC(=O)c1cnc(Nc2ccc(F)cc2F)c2ccccc12 | 30.9%[activator] | 29.8% |
| COc1ccc(-c2nc(COC(=O)C3(O)CCCCC3)cs2)cc1 | 11.8% | 137.2%[activator] |
| CCOc1cc(C(=O)OCC(=O)Nc2ccc(F)c(Cl)c2)ccc1OCC(=O)N1CCCCC1 | -11.1% | -12.5% |
| O=C(NCC1CCCO1)c1ccc(CSc2nc3cccnc3n2Cc2ccc(F)cc2)cc1 (stereo not given) | 17.1% | 3.9% |
| Cc1cc(C)c2sc(N(Cc3cccnc3)C(=O)CCOc3ccccc3)nc2c1 | -17.4% | 7.2% |
| Cc1ccc(Cl)cc1NC(=S)NCCSc1ccccc1 | 139.8%[activator] | 27.3% |
| COc1ccc(C(=O)Oc2cc(C)ccc2Cl)cc1OC | 6.7%[1.06 µM] | 0.0% |
| Cc1ccccc1N(CC(=O)NCCN1CCOCC1)S(=O)(=O)c1ccccc1 | 54.4%[activator] | 35.4%[activator] |
| O=c1[nH]c(N2CCCC2)nc2nccc(-c3ccccc3)c12 | 18.2% | 20.0% |
| Cc1cccc(C)c1NC(=O)C1CCCCC1 | 0.5% | -3.5% |
| Cc1cc(C)cc(-n2ccn(CC(=O)Nc3ccc(Br)cc3)c(=O)c2=O)c1 | -17.1% | -14.4% |
| CSc1ncc2c(n1)-c1ccccc1N(Cc1ccccc1)S2(=O)=O | -2.2% | -12.5% |
| COc1ccc(-c2cnnn2-c2ccc(NC(=O)c3ccccc3OC)cc2)cc1 | 92.6%[activator] | 71.8%[activator] |
| Cc1ccc(Cl)cc1NC(=O)C(=O)NCC(c1cccnc1)N1CCc2ccccc21 (stereo not given) | 38.8%[activator] | ? |
| CC(C)CCOc1ccc(Cn2c(=O)oc3ccccc32)cc1 | -10.2% | -13.7% |
| Cc1nn(-c2ccccc2)c(C)c1CN(C)C(=O)CNC(=O)c1ccc(C(C)(C)C)cc1 | ? | ? |
| CC/C(=N\NC(=O)C1CC1c1ccccc1)c1ccc(C)cc1 (stereo not given) | 17.6% | -1.6% |
| CCOC(=O)c1c(-c2ccc(Br)cc2)csc1NC(=O)c1ccccc1F | -2.1% | -16.6% |
| COc1cc(NC(=O)CN2CCN(S(=O)(=O)c3ccc(Br)cc3)CC2)cc(OC)c1 | -7.4% | -15.8% |
| Cc1ccc(COc2cccc(CNC3CC3)c2)cc1 | 4.9% | 0.0% |
| CC(C)OC(=O)C(C)(C)Oc1ccc(C(=O)c2ccc(Cl)cc2)cc1 | 0.1% | -8.5% |
| Cc1ccc(NC(=O)c2ccc3nsnc3c2)c(C)c1 | 11.8% | 156.8%[activator] |
| CC(NC(=O)CSC1=NCCS1)C1CC2CCC1C2 (stereo not given) | -17.3% | -4.5% |
| COc1cccc(C(=O)Nc2c(C(=O)Nc3ccc(F)cc3)oc3ccccc23)c1OC | -11.9% | 143.1%[activator] |
| Cc1ccc(-c2ccc3c(N)c(C(=O)Nc4cccc(C)c4)sc3n2)cc1 | 20.7% | 55.9%[activator] |
| COCc1ccc(CNC(=O)/C=C/c2ccc(C)s2)cc1 | 0.0% | 5.2% |
| CCOc1ccc(-c2nc(N)ncc2Oc2cccc(OC)c2)c(O)c1 | 63.2%[activator] | 23.9% |
| O=C(CNC(=O)C1CC(=O)N(c2ccc(F)cc2)C1)NCCc1c[nH]c2ccccc12 (stereo not given) | 14.8% | -1.5% |
| Cn1c(=O)c2c(nc(SCCN3CCCCC3)n2Cc2cccc3ccccc23)n(C)c1=O | 2.5% | 12.8% |
| CCCn1nc(C(=O)Nc2cc(C)ccc2OC)c2ccccc2c1=O | -3.7% | 3.4% |
| CC(=O)c1ccc(N2CCN(C(=O)CCn3cnc4onc(-c5ccc(F)cc5)c4c3=O)CC2)cc1 | -0.1% | -3.4% |
| C/C=C/C=C/C(=O)NC(C)c1ccc(F)c(F)c1 (stereo not given) | 8.2% | -3.1% |
| Cc1ccc(NC(=O)NCCOCCn2c(=O)oc3ccccc32)cc1F | -7.6% | -19.1% |
| CCC(C(=O)NC12CC3CC(CC(C3)C1)C2)c1ccccc1 (stereo not given) | -4.1%[1.06 µM] | -12.2% |
| Cc1cccc(C(=O)Nc2sccc2C#N)c1 | 6.2% | 170.7%[activator] |
| CCOc1ccc2c(=O)c(Oc3ccc(OC)cc3)coc2c1 | 50.5%[activator] | 139.2%[activator] |
| CCc1ccc(CNC(=O)c2cc(-c3ccc(Br)s3)nc3ccccc23)cc1 | -6.6% | -6.4% |
| CCS(=O)(=O)NCC(c1ccco1)N1CCN(c2ccc(OC)cc2)CC1 (stereo not given) | -14.2% | -13.6% |
| Cc1ccc(-c2nc3scc(CCNS(=O)(=O)c4ccc(Oc5ccccc5)cc4)n3n2)cc1 | 0.0% | -5.9% |
| Cc1cccc(CCCCCCCCCCCC(=O)O)c1 | ? | ? |
| COc1cccc(/C=C/c2nc(=O)c3ccccc3o2)c1OC | 3.1% | 189.0%[activator] |
| CC(=O)Nc1ccc(NC(=O)CCS(=O)(=O)c2ccc3c(c2)CC(=O)N3C)cc1 | -14.0% | -7.1% |
| COc1ccc(C(=O)C(C)OC(=O)c2cc(=O)c3ccccc3o2)cc1 (stereo not given) | -13.9% | -15.3% |
| CC/C=C(/C)C(=O)NC(C)c1cc(C)sc1C (stereo not given) | 1.8% | 6.7% |
| Cn1nnc2c(N3CCN(c4ccc(F)cc4)CC3)ncnc21 | -14.1% | -2.3% |
| COC(=O)c1c(NC(=O)Cc2coc3cc(C)ccc23)sc2c1CCC2 | -2.7% | 5.3% |
| COCCN(CCOC)S(=O)(=O)c1ccc(C(=O)Nc2sc3c(c2C(N)=O)CCCC3)cc1 | -3.0% | -8.9% |
| COc1ccc(-c2noc(N3CCC(C(=O)N4CCN(c5cccc(C)c5C)CC4)CC3)n2)cc1 | 0.3% | -19.0% |
| CC(=O)N1CCC2(CC1)Oc1ccc(Br)cc1C1CC(c3cccnc3)=NN12 (stereo not given) | 31.2%[activator] | 62.4%[activator] |

(listing goes on)
| Molecule | 2A Renilla | StopGo FLuc |
| --- | --- | --- |
| COc1ccc(CNC(=O)Cn2ncc3c4ccccc4n(Cc4cccc(Cl)c4)c3c2=O)cc1 | 5.5% | 8.7% |
| O=C(N(Cc1cccc2[nH]ccc12)C1CC1)C12CC3CC(CC(C3)C1)C2 | 43.9%[activator] | -13.3% |
| CN(C)CCCN1c2ccccc2CCc2ccc(Cl)cc21 | -5.8% | 0.9% |
| CC(C)c1ccc(-c2csc(N=C(N)N)n2)cc1 | 13.7% | 178.8%[activator] |
| CN1CCC(NC(=O)CCc2ncc(-c3ccc(F)cc3)o2)CC1 | 11.3% | 17.1% |
| Cn1c(=O)oc2cc(S(=O)(=O)N3CCC(C(=O)N4CCN(c5ccc(Cl)cc5)CC4)CC3)ccc21 | -1.8% | -6.6% |
| Cc1c(Cl)cccc1NC(=O)c1cccc(NC(=O)N2CCSc3ncccc32)c1 | ? | -17.6% |
| CCc1ccccc1NC(=O)c1cc(S(=O)(=O)NC2CCCC2)ccc1F | 181.4%[activator] | -0.8% |
| Cc1ccc(NC(=O)C23CC4CC(CC(C4)C2)C3)cc1Cl | 12.3% | 24.9% |
| COc1ccc(Nc2ncc(C(=O)Nc3cc(Cl)c(OC)cc3OC)c3ccccc23)cc1 | 16.7% | 0.0% |
| CCC(=O)N1CCc2cc(CNC(=O)Nc3cc(Cl)ccc3C(=O)OC)ccc21 | -3.4% | -7.8% |
| COc1ccccc1NC(=O)C(C)OC(=O)c1cccnc1 (stereo not given) | -10.6% | -5.5% |
| Cc1cccc(C(=O)NCC(c2ccco2)S(=O)(=O)c2cccs2)c1 (stereo not given) | 12.2% | -0.4% |
| C=C(C)[C@@H]1CCC2(COC(C)=O)CC[C@]3(C)C(CCC4[C@@]5(C)CCC(=O)C(C)(C)C5CC[C@]43C)C12 (stereo not given in full) | 5.8% | 4.2% |
| Cc1ccc(NC(=O)c2sc3ncn(Cc4cccc(F)c4)c(=O)c3c2C)c(Br)c1 | 6.0% | 10.8% |
| COc1ccc(NC(=O)C2CC(=O)Nc3c(-c4ccc(OC)cc4)cnn32)cc1 (stereo not given) | 4.4% | 0.0% |
| COc1cccc(CNC(=O)Cc2ccc(NC(=O)N3CCSc4ncccc43)cc2)c1OC | -16.7% | -14.4% |
| O=C(CSc1ncnc2cc(-c3ccc(F)cc3)sc12)NC1CCCC1 | 8.6% | 4.6% |
| COc1ccc2oc(=O)c(C(=O)NCc3ccc(C)cc3)cc2c1 | -0.7% | -1.1% |
| Cc1cc(O)cc2c1O[C@](C)(CCC[C@H](C)CCC[C@H](C)CCCC(C)C)CC2 | -19.2% | -5.1%[11.5 µM] |
| Cc1ccc(S(=O)(=O)N2CCc3cc(C(=O)Nc4ccc(C)c(C)c4)ccc32)cc1 | -7.0% | -2.6% |
| O=C(CCc1ncc(-c2c(F)cccc2F)o1)N1CCN(S(=O)(=O)c2ccccc2Cl)CC1 | 2.6% | 6.1% |
| Cc1cccc(OCCN(C)Cc2cc(=O)oc3c(C)c(O)ccc23)c1 | ? | ? |
| CC1CCC(NC(=O)c2ccc3ncsc3c2)CC1 (stereo not given) | 11.5% | 32.3%[activator] |
| CN(CC(=O)N(C)C)Cc1ncc(-c2ccccc2)o1 | -5.8% | 29.2% |
| CCc1nc2ccc(C(=O)Nc3ccccn3)cc2nc1CC | 9.4% | 169.8%[activator] |
| CCOc1ccc(Nc2ncnc3c2nc2n3CCCC2)cc1 | ? | 2.1% |
| COc1cccc(CC(=O)NC(c2ccccc2)c2ccccc2)c1 | -2.5% | 49.8%[activator] |
| CC(C)Cc1ccc(C(C)NC(=O)CCNC(=O)C(C)(C)C)cc1 (stereo not given) | 4.4% | 1.2% |
| N#C/C(=C/c1ccc(O)cc1)c1nc(C2CC2)cs1 | -1.1%[1.06 µM] | 43.3%[activator] |

Arranged by count of non-hydrogen atoms (ascending): some entries from above
| Molecule | 2A Renilla | StopGo FLuc |
| --- | --- | --- |
| CC1CCC(NC(=O)c2ccc3ncsc3c2)CC1 (stereo not given) | 11.5% | 32.3%[activator] |
| CCc1nc2ccc(C(=O)Nc3ccccn3)cc2nc1CC | 9.4% | 169.8%[activator] |
| CC(C)Cc1ccc(C(C)NC(=O)CCNC(=O)C(C)(C)C)cc1 (stereo not given) | 4.4% | 1.2% |
| O=C(CCc1ncc(-c2c(F)cccc2F)o1)N1CCN(S(=O)(=O)c2ccccc2Cl)CC1 | 2.6% | 6.1% |

Next part
| Molecule | 2A Renilla | StopGo FLuc |
| --- | --- | --- |
| O=c1[nH]c(-n2cccc2)c(-c2c(-c3ccccc3)[nH]c3[nH]c(=O)[nH]c(=O)c23)c(=O)[nH]1 | 1.0% | 6.1% |
| O=C(NC1CCCC1)c1cc2c(F)cccc2s1 | -17.2% | 0.0% |
| O=C(NCc1ccc(Cl)cc1)c1cnc(N2CCOCC2)c2ccccc12 | 30.7%[activator] | -26.3% |
| CN(C)C(=O)C(Sc1nnc(-c2ccc(Cl)cc2)n1N)c1ccccc1 (stereo not given) | 14.5% | 17.3% |
| Cc1ccc(NC(=O)CCS(=O)(=O)c2ccc3nc(C)sc3c2)c(C)c1 | -17.5% | -29.0% |
| Cc1ccc(CCNC(=O)C2CC(=O)N(CCc3ccccc3)C2)cc1 (stereo not given) | -4.1% | -22.7% |
| COc1ccccc1CNC(=O)Cn1ncc2c3ccccc3n(Cc3ccccc3C)c2c1=O | -17.8% | 8.5% |
| COc1ccc(C(CNC(=O)c2oc3cc(C)c(C)cc3c2C)N2CCCCC2)cc1 (stereo not given) | -4.7% | -6.1% |
| COc1ccc(C2c3cc(OC)c(OC)cc3CC(=O)N2c2ccc(OC)cc2)cc1 (stereo not given) | 49.8%[activator] | 26.0% |
| CCOc1ccc(CCNC(=O)c2ccc(CS(=O)Cc3ccc(Cl)cc3)o2)cc1 (stereo not given) | ? | ? |
| Cc1cccc(C(=O)NCCn2c(C)cc3ccccc32)c1 | -4.1% | 24.3% |
| COc1ccc(NC(=O)N2CCN(S(=O)(=O)c3ccc4c(ccn4C)c3)CC2)cc1OC | 10.5% | -4.7% |
| Cc1cccc(NC(=O)c2c(NC(=O)c3cccs3)sc3c2CCC(C)C3)c1 (stereo not given) | -6.6% | 4.1% |
| CCCCc1cc(=O)oc2cc(OCC(=O)NCc3ccncc3)c(Cl)cc12 | -1.9% | -6.8% |
| CCC(Oc1ccccc1)C(=O)Nc1nnc(S(=O)(=O)N(CC)CC)s1 (stereo not given) | 3.1% | -6.3% |
| C=CCOc1ccc(CN(C)CC(=O)NC(=O)NCc2cccs2)cc1 | 12.7% | -10.6% |
| CC(C)(C)C(=O)OCOP(=O)(COCCn1cnc2c(N)ncnc21)OCOC(=O)C(C)(C)C | 23.4% | 12.0% |
| CC(C)n1nc(C(=O)Nc2ccc(Nc3ccccc3)cc2)c2ccccc2c1=O | 26.7% | 0.0% |
| CNc1oc(-c2cc(S(=O)(=O)N(C)C)c(C)o2)nc1C#N | -6.5% | 11.8% |
| COc1ccc(CCNc2oc(-c3cccc4ccccc34)nc2C#N)cc1OC | 4.8% | -0.1% |

Screening data as filed in PubChem BioAssay.
